# Bioassay records as filed in PubChem BioAssay.
# Rango complex inh – inhibitors of Rango-importin beta complex formation | AID 540263 | Potency, µM (highest dose often 92.2 µM), for inactives: top-dose inhibition of complex formation | Rango CFP/YFP FRET sensor + importin beta, 45 min | actives 0.031% (n = 340,000); active = rising FRET ratio curve, often small or poorly fitted; inconclusive = mostly compound fluorescence or quenching in the first reads; inactive = flat curves in all reads;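 note: potency is the fitted concentration of half-maximal effect; 0% = DMSO wells and 100% = buffer wells lacking importin beta; nearly all actives have a fitted effect of over 15% in size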
#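 Inhibition scored from the CFP 486 nm/YFP 530 nm FRET ratio 45 min after adding 0.125 microM importin beta to 50 nM Rango biosensor preincubated 5 min with compound (room temperature, PBS with DTT, Tween-20, BSA). No-importin wells as positive control.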
# miR-21 reporter – raises the signal of a miR-21 reporter | HeLa miR-21 FLuc reporter, luciferase, 48 h | Potency, µM (highest dose often 38.3 µM), inactives show at the highest dose reporter change, positive = more light | 340,000 tested, under 10 active | AID 2288; active = well fitted rising curve with a large enough effect; inconclusive = small, poorly fitted or top-dose-only effect; inactive = no such curve, though single readings can be large or run the other way;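 note: % of control where 0% means no effect; miR-21 action dims this reporter so a rising signal means less miR-21 action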
#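 HeLa miR-21-FLuc reporter line, endogenous miR-21; 2000 cells/well in DMEM/10% FBS; compound titration up to ~40uM final, 48 h, 37 degree Celsius; luciferase detection reagent, 15 min lysis, CCD luminescence.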
# GLA inh pH 4.5 – inhibitors of human alpha-galactosidase A at pH 4.5. activity change, negative = inhibition, % at 105 µM. AID 1467. purified enzyme, 4-MU-alpha-Gal fluorescence, pH 4.5. 230,000 tested, under 10 active. P06280; inconclusive = small, poorly fitted or top-dose-only inhibition, or a rising curve; inactive = flat fitted curve, though single readings scatter; no compound was filed as active;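 note: 0% = full activity with enzyme and -100% = basal without enzyme; dose as in the result columns while the protocol names 77 µM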
# Target sequence (P06280 whole entry, looked up): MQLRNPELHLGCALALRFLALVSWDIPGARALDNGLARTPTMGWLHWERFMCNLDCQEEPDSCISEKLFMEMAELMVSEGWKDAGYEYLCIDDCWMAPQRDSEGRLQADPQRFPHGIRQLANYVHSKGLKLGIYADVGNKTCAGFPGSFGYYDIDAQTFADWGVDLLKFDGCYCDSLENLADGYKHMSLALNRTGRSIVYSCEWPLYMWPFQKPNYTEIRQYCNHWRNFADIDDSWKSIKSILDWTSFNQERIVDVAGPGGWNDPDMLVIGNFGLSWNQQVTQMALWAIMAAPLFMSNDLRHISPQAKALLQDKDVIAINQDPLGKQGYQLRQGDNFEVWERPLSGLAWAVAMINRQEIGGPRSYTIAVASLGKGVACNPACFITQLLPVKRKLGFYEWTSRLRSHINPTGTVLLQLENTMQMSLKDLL
# Rango release inh – prevents RanGTP from dissociating the Rango-importin beta complex | O95149+P62826 | Biochemical FRET Rango-importin beta, RanGTP-induced dissociation | Potency, µM (doses to about 46.1 µM), inactives show top-dose activity change, negative = inhibition | actives 0.071% (n = 340,000) | AID 540253; active means falling FRET ratio curve, often poorly fitted, with flat reads before Ran was added; inconclusive means other falling curves, or compound fluorescence or quenching; inactive means flat or rising ratio curve;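 note: potency is the fitted concentration of half-maximal effect; % of control where 0% means no effect; nearly all actives have a fitted effect of over 45% in size; -100% = wells without RanGTP and RCC1; the record marks most hits as doubtful in a second field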
#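 Rango/importin beta premix (0.1/0.25 uM final), PBS + 1 mM DTT + 0.02% Tween-20 + 0.1% BSA; cpd 5 min RT; FRET pre-read; + RanGTP-RCC1 (0.6 uM Ran, 2 mM GTP, 0.2 uM RCC1); 45 min RT; FRET post-read, ex 430, em 486/530 nm.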
# The depositor's hits bear a star; u = inconclusive; x = no result given; & = joins results of further samples. These rows are one share of the data (hit frequency here may not be typical).
SMILES,Rango complex inh,miR-21 reporter,GLA inh pH 4.5,Rango release inh
CCN(CC)CCN(C(=O)c1ccc(S(=O)(=O)N(CC)c2ccccc2)cc1)c1nc2c(OC)ccc(OC)c2s1,0.1%,1%,x,7%
COc1ccc(N2CCN(C3CCN(S(=O)(=O)c4ccc(F)cc4)CC3)CC2)cc1,-1.4%,0%,x,3%
CC(=O)/C(N=Nc1nc2c([nH]1)c(=O)n(C)c(=O)n2C)=C(\C)O,u,-2%,-16,2%
CCC(C)N1CCCCC1C(=O)Nc1c(C)cc(C)cc1C (centres undefined),-1.0%,-7%,5,-13%
C/C(=N\Nc1ccc([N+](=O)[O-])cc1)c1ccc(-n2nncc2C)cc1,u,-6%,-7,u
COc1ccc(Cl)cc1C(=O)O/N=C(\N)c1ccccn1,-1.8%,-28%,x,-15%
COc1cc2c(cc1OC)NC(=O)C2,6.9%,x,x,-12%
CCC(C)(C)NC(=O)CN(CCc1cccc(C)c1)C(=O)c1csnn1,-0.2%,2%,12,7%
c1ccc(-c2noc(CSc3nnc(Cc4cccs4)n3-c3ccccc3)n2)cc1,2.8%,-8%,-27,8%
C/C(CC(=O)Nc1ccc(Cl)cc1C(F)(F)F)=N\NC(=O)c1ccccn1,0.3%,-41%,x,-17%
CC(=O)Nc1ccc(NC(=O)Cn2c(=O)n(-c3ccccc3)c(=O)c3oc4ccccc4c32)cc1,-2.2%,1%,1,10%
Cc1ccc(C2=NN(S(=O)(=O)c3ccccc3)C(c3ccccc3O)C2)cc1 (centres undefined),u,8%,-10,-18%
CCCCNC(=O)C1C2C=CC3(CN(Cc4ccc(C)cc4)C(=O)C13)O2 (centres undefined),0.4%,-3%,6,0%
Cc1cc(NC(=O)c2cc3ccccc3oc2=O)no1,-0.3%,-8%,12,1%
COC(=O)[C@H](Cc1ccccc1)NC(=O)O[C@@H]1C(=O)c2cc(OC)ccc2O[C@H]1c1ccc(OC)c(Br)c1,x,-17%,0&-1,x
O=[N+]([O-])c1ccc(F)cc1F,0.6%,x,x,-9%
CCOc1ccc(NC(=O)C(CC(=O)O)Cc2ccc(Br)cc2)cc1 (centres undefined),1.6%,0%,x,0%
Cc1ccc(-c2csc(NC(=O)c3cccc([N+](=O)[O-])c3C(=O)O)n2)cc1,-1.0%,-5%,-5,-1%
CC(C)Cc1ccc(S(=O)(=O)NCC2CCCO2)cc1 (centres undefined),-0.7%,0%,x,-10%
O=C(CN1CCN(S(=O)(=O)c2ccc(Cl)cc2)CC1)NCc1cccs1,2.6%,x,x,-3%
O=S(=O)(c1ccc(Cl)c(NC(=S)Nc2cccc(O)c2)c1)N1CCOCC1,1.2%,-5%,0,10%
CCOC(=O)c1ccc(COC(=O)c2cc(=O)[nH]c3ccccc23)o1,-1.4%,-8%,-9,7%
CN(C(=O)Cn1nnc(-c2cccc(C(F)(F)F)c2)n1)C1CCCCC1,-2.0%,-3%,-26,2%
O=S(=O)(NCCSc1ccccc1)c1ccc2c(c1)OCCO2,1.2%,-6%,5,2%
Cc1ccc2oc(C(=O)N3CCC(N4CCSCC4)CC3)c(C)c2c1,4.8%,-9%,x,14%
Cc1csc(NC(=O)c2cccc(S(=O)(=O)N3CCN(C)CC3)c2)n1,0.4%,-1%,-11,-2%
CCCCNC(=O)CCn1nc(-c2ccccc2)ccc1=O,-3.6%,-3%,-1,16%
CCN(CC)CCNC(=O)c1cc(-c2ccc(Br)s2)nc2ccccc12,-0.9%,-17%&21%,x,1%
CC(C)CCNC(=O)CN(Cc1ccccc1Cl)C(=O)CCC(=O)Nc1ccccn1,0.3%,4%,x,7%
COc1ccc(C2SCCN2C(=S)Nc2ccc(Cl)cc2)cc1 (centres undefined),0.8%,10%,-6,0%
COc1ccc(-c2cc(C(=O)Nc3cccc(S(=O)(=O)NCc4ccco4)c3)c3ccccc3n2)cc1OC,u,12%,-6,5%
CCc1cc2cc(C)cc(C)c2[nH]c1=S,0.0%,1%,3,u
CC(CNC(=O)c1ccc(C(C)(C)C)cc1)CN(C)C (centres undefined),2.0%,-5%,12,1%
Cc1ccccc1N1CCN(C2CCCN(C(=O)c3cc(CC(C)C)nn3C)C2)CC1 (centres undefined),-3.9%,20%,x,-13%
CCCCC(CC)C(=O)NCCc1ccc(S(N)(=O)=O)cc1 (centres undefined),4.7%,6%,0,0%
O=C(CNC(=O)c1sc2ccccc2c1Cl)NCc1ccccc1,-0.2%,4%,x,2%
COC(=O)CC1C(=O)NC2CCCCC2N1C(=O)CCl (centres undefined),-3.7%,1%,-4,-10%
O=C(Nc1nc2ccc(F)cc2s1)c1ccc(N2CCCC2=O)cc1,-2.0%,x,x,4%
Cc1ccc(S(=O)(=O)N2CCC(N3CCN(C)CC3)CC2)cc1Cl,0.8%,-4%,x,-2%
O=C(c1ccccc1)N1CCSc2sccc2C1=O,-1.7%,-15%,1,17%
CCCS(=O)(=O)N1CCC(C(=O)NC2CCCC(C)C2C)CC1 (centres undefined),u,-21%,0,-8%
O=C(CN(Cc1ccco1)C(=O)c1ccc(Cl)cc1)Nc1c(Cl)cc(Cl)cc1Cl,1.1%,-7%,-4,-15%
N#CC1(Nc2ccc([N+](=O)[O-])cc2)CCCC1,0.5%,x,x,-4%
Cc1cccc(-c2nnc(N)s2)c1,-1.9%,-20%,-3,-17%
NS(=O)(=O)c1cccc(NC(=O)CN2CCCc3ccccc32)c1,1.5%,-1%,5,-20%
Cc1cc(Cl)ccc1OCc1nc(-c2ccncc2)no1,1.0%,-58%,-7,0%
O=C(COC(=O)CC(c1ccccc1)c1ccccc1)Nc1c(F)cccc1F,x,-12%,-5,x
CNC(=O)CN(C)S(=O)(=O)c1ccc(OC)c(Cl)c1,1.7%,-3%,0,25%
C#CCOC(=O)Nc1ccc(OCC(F)(F)F)nc1,-4.4%,-24%,-2,-1%
Cc1cc(C)n2ncc(-c3cccc(Br)c3)c2n1,2.8%,-35%,x,-9%
# Continued:
SMILES,Rango complex inh,miR-21 reporter,GLA inh pH 4.5,Rango release inh
CCN(CC)S(=O)(=O)c1ccc(-c2nnco2)cc1,4.8%,1%,-5,-9%
CC(=O)N1CCc2c(sc(NC(=O)c3ccc(S(=O)(=O)N(C)C)cc3)c2C#N)C1,2.8%,x,x,55%
Cc1cc2oc(=O)sc2cc1NS(=O)(=O)c1ccccc1,-1.2%,0%,x,0%
N#CC1(c2ccccc2)CCCN1C(=O)c1ccc(Br)o1 (centres undefined),4.5%,-5%,2,-2%
NC(=O)C1(N2CCCCC2)CCN(Cc2ccc(F)cc2)CC1,8.1%,-4%,4,-8%
C=CCn1c(COc2ccccc2)nnc1SCC(=O)NCC(=O)OCC,-4.7%,-4%,-2,14%
CCOC(=O)c1ccc(NC(=O)C2CCC(CNc3c(N4CCOCC4)c(=O)c3=O)CC2)cc1 (centres undefined),11%,-1%,2,-15%
CC(=O)c1cccc(N(CC(=O)NC2CCCCC2)C(=O)CNC(=O)c2cccs2)c1,-0.4%,-1%,x,12%
Cc1cc(=O)c2cc(Br)ccc2n1CC(=O)NCc1ccccc1,-2.1%,1%,0,12%
COc1ccc(Cl)cc1C(=O)NC(=S)Nc1cc(-c2nc3ccccc3[nH]2)ccc1C,-2.2%,-30%,0,6%
O=C(CN1CCCCC1)Nc1c2c(nc3ccccc13)N(c1ccccc1)CC2,-0.2%,11%,9,11%
COCCNc1nc(CSc2ccccc2)nc2sc(C)c(C)c12,1.1%,-22%,-10,2%
Cc1nn2c(-c3ccc(S(=O)(=O)N4CCN(C)CC4)o3)nnc2c2ccccc12,4.1%,-3%,x,25%
O=C(Nc1cc(S(=O)(=O)N2CCOCC2)ccc1N1CCOCC1)c1cn2ccccc2n1,6.9%,-1%,-4,5%
COC(=O)c1ccc(N2CCN(C(C)=O)CC2)c(NC(=O)COc2ccccc2C)c1,0.8%,3%,-7,8%
COc1ccc(NC(=O)c2ccccc2Oc2ccccc2)cc1,-3.6%,-14%,x,-10%
O=C(Nc1ccc(CN2CCCCC2)cc1)c1ccc2c(c1)OCO2,1.9%,-29%,-3,0%
CC(C)n1c(O)c(N=NC(=O)CNC(=O)CCc2ccccc2)c2ccccc21,0.9%,-4%,-14,-1%
CCOc1ccc(-n2cnc3scc(-c4ccc(OC)c(OC)c4)c3c2=O)cc1,-1.9%,3%,0,16%
Cc1ccc(S(=O)(=O)N2CCC(C(=O)OCC(=O)N3CCCC(C)C3)CC2)cc1C (centres undefined),3.7%,x,x,25%
Cc1cc(C)c(S(=O)(=O)n2ccc(-c3ccc(OCCN(C)c4ccccn4)cc3)n2)c(C)c1,-3.1%,0%,-7,14%
COc1cc(C(=O)NCc2ccccc2)ccc1OC(F)F,2.8%,-3%,-9,1%
Cn1c(CNC2CCCCC2)c(C#N)c2ccccc21,0.9%,-18%,2,-8%
COC(=O)CCCNC(=O)c1ccc(S(=O)(=O)NCc2ccco2)cc1,-0.9%,x,x,0%
CN=c1scc(-c2ccc([N+](=O)[O-])cc2)n1/N=C/c1ccco1,-2.7%,-57%,4,5%
Clc1ccccn1,1.9%,x,x,2%
C=CCOC(=O)C1=C(C)Nc2nc3ccccc3n2C1c1ccncc1 (centres undefined),-1.3%,1%,2,3%
CCCCC(=O)Nc1ccc(C(=O)Nc2nc(CC(=O)OCC)cs2)cc1,4.7%,1%,3,-9%
COc1ccc(OCC(=O)N/N=C(\C)CC(=O)Nc2ccc(NC(C)=O)cc2)cc1,-0.4%,-10%,x,8%
CCCCCCCCCCCCCCCC[N+](C)(C)Cc1ccc(F)cc1,16%,x,x,14%

# Reformatted: results already given
# Value order: Rango complex inh	miR-21 reporter	GLA inh pH 4.5	Rango release inh
> CN=c1scc(-c2ccc([N+](=O)[O-])cc2)n1/N=C/c1ccco1
 : -2.7%	-57%	4	5%
> CCCCC(=O)Nc1ccc(C(=O)Nc2nc(CC(=O)OCC)cs2)cc1
 : 4.7%	1%	3	-9%

# Other compounds
SMILES,Rango complex inh,miR-21 reporter,GLA inh pH 4.5,Rango release inh
C=CCN(c1ccccc1)S(=O)(=O)c1c(C)[nH]c(=O)[nH]c1=O,-4.6%,1%,10,18%
COc1ccc(CCNC(=O)c2ccc3nc4cc(Cl)ccc4c(=O)n3c2)cc1OC,u,0%,x,-1%
COc1ccc(NC(=O)CCC(=O)NCc2ccco2)c([N+](=O)[O-])c1,1.6%,-4%,x,0%
CCOC(=O)N1CCN(S(=O)(=O)c2ccc(F)c(C(=O)Nc3ccc(C(C)C)cc3)c2)CC1,-0.5%,-2%,-4,-15%
CN(C)S(=O)(=O)c1cccc(C(=O)Nc2cc(Cl)ccc2O)c1,-3.5%,-20%,3,-8%
CCn1c(=O)cc(O)c2c(=O)n(C)c(=O)n(C)c21,4.0%,-2%,7,1%
CN(Cc1ccccc1)C(=O)COC(=O)c1cc(S(=O)(=O)N(C)C)ccc1N1CCCC1,0.1%,x,x,-7%
NC(=O)CCCc1nc(-c2ccccc2Cl)no1,-3.1%,-9%,5,2%
O=c1cc(-c2ccccc2)[nH]c2nc3ccccc3n12,-1.7%,-33%,u,-9%
O=C1CCC[C@@H]2CC(Nc3ccc(F)cc3F)C[C@@H]3CCN1[C@H]23 (some centres undefined),4.5%,x,-2,0%
Cc1ccc(NC(=O)c2cc(-n3cnnc3)ccc2Cl)c(C)c1,-4.0%,2%,25,-9%
Cc1ccc(C(=O)OCC(=O)N(C)C2CCS(=O)(=O)C2)cc1S(=O)(=O)N1CCCCC1 (centres undefined),-3.8%,x,x,-13%
FC(F)(F)c1cccc(NC(=S)NCc2ccc(Cl)cc2)c1,11%,u,-1,8%
O=C(c1ccccc1)c1cccc(C(=O)c2ccccc2)c1,1.2%,x,x,0%

# Copied from the listing for reference:
SMILES,Rango complex inh,miR-21 reporter,GLA inh pH 4.5,Rango release inh
Cc1ccc(C(=O)OCC(=O)N(C)C2CCS(=O)(=O)C2)cc1S(=O)(=O)N1CCCCC1 (centres undefined),-3.8%,x,x,-13%
FC(F)(F)c1cccc(NC(=S)NCc2ccc(Cl)cc2)c1,11%,u,-1,8%
O=C(c1ccccc1)c1cccc(C(=O)c2ccccc2)c1,1.2%,x,x,0%
